VDR inh = Inhibitors of the vitamin D receptor (VDR): qHTS. hit rate 0.93% among 400,000. Vitamin D3 receptor (Homo sapiens), P11473. VDR-SRC2-3 peptide fluorescence polarization, 2 h. Potency, µM, for the others: max response, negative = inhibition, usual class: inhibitors. AID 504847, 2011; active means well fitted inhibition curve with a large enough effect; inconclusive means small, poorly fitted or top-dose-only effect, or another doubt; inactive means no such curve, though single readings can be large or run the other way; further: series mostly up to about 120 µM
Target sequence (P11473 whole entry, looked up): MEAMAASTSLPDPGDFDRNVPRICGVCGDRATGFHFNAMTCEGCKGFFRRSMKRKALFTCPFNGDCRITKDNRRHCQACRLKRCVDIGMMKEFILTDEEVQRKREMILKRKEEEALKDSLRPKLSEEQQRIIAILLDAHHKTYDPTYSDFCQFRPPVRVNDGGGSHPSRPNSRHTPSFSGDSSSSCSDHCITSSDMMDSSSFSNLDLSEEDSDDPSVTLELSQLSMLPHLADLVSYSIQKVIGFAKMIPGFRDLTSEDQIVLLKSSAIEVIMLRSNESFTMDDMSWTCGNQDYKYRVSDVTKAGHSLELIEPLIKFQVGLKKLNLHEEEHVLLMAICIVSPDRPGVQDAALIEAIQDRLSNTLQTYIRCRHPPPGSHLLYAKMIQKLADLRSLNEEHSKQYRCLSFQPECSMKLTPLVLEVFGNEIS
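Compounds are added to VDR with labelled SRC2-3 coactivator peptide and held 2 h at room temperature. Inhibition of the VDR–peptide interaction is then read as a change in fluorescence polarization.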
Active calls of the source: *; ? = inconclusive. On the % scale 0 is the no-effect control and ±100 the full control effect; potency means the concentration at half of the fitted maximal effect.

molecule,VDR inh
CC1(C)O[C@@H](CC(=O)O)[C@]23CO[C@H](C(=O)[C@]4(C)C2CC[C@@]2(C)[C@H](c5ccoc5)OC(=O)C5O[C@]524)[C@@H]13 (some centres undefined),-8%
Cc1nn2c(=O)cc(COC(=O)c3ccc(NC(=O)COc4ccc(Cl)cc4)cc3)nc2s1,7%
Cc1ccc2c(COC(=O)c3ccc(C)c(C)c3)cc(=O)oc2c1,-4%
O=C(NCCc1ccc(F)cc1)c1ccc2c(=O)n3c(nc2c1)CCC3,5%
N#CCCOC1(C#CCN2CCCC2)CCCCC1,-14%
CN(C)c1ccc(/C=C/c2c([N+](=O)[O-])c(=O)n(C)c(=O)n2C)cc1,-4%
CCCCC(=O)Nc1ncc(S(=O)(=O)c2ccc([N+](=O)[O-])cc2)s1,-10%
COc1ccc(NC(=O)c2ccccc2NC(=O)COc2ccccc2)cc1,2%
COc1ccc(NC(=O)c2ccccc2NC(=O)CSc2ccc(Cl)cc2)cc1,14%
COc1ccc2sc(-c3ccccc3OC)c(C#CCCO)c2c1,-12%

The results go on:
molecule,VDR inh
COc1ccc(NC(=O)Nc2ccncc2)c(OC)c1,1%
Cc1noc(C)c1COc1ccccc1C(=O)NC(C)c1ccc(F)cc1 (centres undefined),-5%
O=C(c1ccc2c(c1)OCCO2)N(Cc1cccnc1)c1nc2c(Cl)cccc2s1,2%
CN(C)c1ccc(CNC(=O)c2cc(S(=O)(=O)N3CCOCC3)cn2C)cc1,11%
Cc1ccc(N(Cc2ccccc2)C(=O)c2cc(S(=O)(=O)N3CCOCC3)ccc2F)cc1,-16%
O=C(NCC(c1cccs1)N1CCOCC1)c1ccco1 (centres undefined),8%
O=C1C=C(c2ccc(OC(F)(F)F)cc2)C[C@@H](c2ccc(F)cc2)C1,-2%
Cc1cccc(N(Cc2nnc3n2CCCCC3)C(=O)Nc2ccccc2)c1,-8%
COc1ccc(S(=O)(=O)NCCc2ccco2)cc1OC,4%
COc1ccccc1C(=O)NCC(=O)OCc1ccc(Br)cc1,2%

The list goes on; it opens with the 4 that closed the last part.
molecule,VDR inh
O=C1C=C(c2ccc(OC(F)(F)F)cc2)C[C@@H](c2ccc(F)cc2)C1,-2%
Cc1cccc(N(Cc2nnc3n2CCCCC3)C(=O)Nc2ccccc2)c1,-8%
COc1ccc(S(=O)(=O)NCCc2ccco2)cc1OC,4%
COc1ccccc1C(=O)NCC(=O)OCc1ccc(Br)cc1,2%
COc1ccc(OCC(=O)N/N=C/C=C/c2ccccc2)cc1,2%
CCCCc1nnc(SCc2cc(=O)c3cc(F)ccc3[nH]2)n1C,16%
Cc1cccc(N2CC(C(=O)Nc3nc4ccc(S(C)(=O)=O)cc4s3)CC2=O)c1C (centres undefined),-10%
Clc1ccccc1-c1nc(NCc2cccnc2)c2ccccc2n1,?
CC(OC(=O)Cc1cccc(C(F)(F)F)c1)C(=O)Nc1ccc(Cl)cn1 (centres undefined),-5%
COc1ccc(S(=O)(=O)N(CC(C)C)CC(C)C)c2cccnc12,?
COc1ccc(C(C)=O)cc1CSc1nnc(Nc2ccc(C)cc2)s1,5%
COc1ccc(C(=O)COC(=O)CNC(=O)C2CCCCC2)c(OC)c1,-7%
Cc1cccc(NC(=S)N/N=C/c2c[nH]c3ccccc23)c1,-11%
O=C(OCC(=O)N1CCCC1)c1ccccc1OCc1ccccc1,1%

(list continues)
molecule,VDR inh
CC1(C)CC(=O)C2=C(C1)NC(SCC(=O)Nc1ccccc1)=C(C#N)C2c1ccco1 (centres undefined),-6%
CCN(CC)S(=O)(=O)c1cccc(C(=O)NC2=NCCS2)c1,10%
N#C/C(=C\C1CC=CCC1)c1nc2ccccc2[nH]1 (centres undefined),-14%
CCC(=O)n1nc(-c2cccnc2)nc1NCc1cccs1,0%
Cc1cccc(N2C(=O)C(Cl)=C(Nc3c(C)n(C)n(-c4ccccc4)c3=O)C2=O)c1C,?
Cn1c(=O)n(C)c2cc(N3CCOCC3)c(NS(=O)(=O)c3ccc(F)cc3)cc21,2%
O=C(CSc1nccc(=O)[nH]1)Nc1cc(C(F)(F)F)ccc1N1CCOCC1,4%
Cc1ccc(CN(C(=O)c2sc3ccccc3c2Cl)C2CCS(=O)(=O)C2)cc1 (centres undefined),-3%
CC(C)(C)OC(=O)NCCCC[C@@H](C(=O)N1CCN(C(=O)OC(C)(C)C)CC1)n1cc(C(CO)NC(=O)OC(C)(C)C)nn1 (some centres undefined),5%
O=C1NCCN(Cc2ccc(F)cc2)C1=O,10%

Later entries:
molecule,VDR inh
COc1cc(C(=O)OCc2cc(=O)n3nc(C(C)C)sc3n2)cc(OC)c1OC,1%
Cc1cc(=O)c2ccc(C(F)(F)F)cc2[nH]1,20%
Cc1cc(C(=O)N2CCCC(Nc3ccc(F)cc3)C2)c(C)o1 (centres undefined),-6%
COc1ccc(N2CCN(C(=O)CCN3C(=S)NC(C)(C)CC3C)CC2)cc1 (centres undefined),5%
Cc1ccc(C)c(S(=O)(=O)N2CCN(C(=O)c3cccn3C)CC2)c1,-1%
COc1cc(OC)cc(-c2c(-c3cccs3)c3cc(-c4ccc(OC)c(F)c4)ccc3n2C)c1,-9%
COc1ccc(-c2nc(-c3cccnc3)no2)cc1,-10%
CC[n+]1cc(C)ccc1/C=C/c1ccc(N(C)C)cc1,-9%
COC(=O)C1CCN(S(=O)(=O)c2cc3c4c(c2)C(C)C(=O)N4CCC3)CC1 (centres undefined),1%
CCOc1cc(CNn2cn[nH]c2=S)cc(Cl)c1OCc1ccccc1F,-10%

Further results follow:
molecule,VDR inh
C=CCN(Cc1ccc(Cl)s1)C(=O)c1cc(S(=O)(=O)N2CCOCC2)ccc1F,-13%
Cc1ccc(C)c(NC(=O)COC(=O)Cn2c(C)csc2=O)c1,11%
CCOC(=O)c1cc(C)n(-c2c(C)n(C)n(-c3ccccc3)c2=O)c1C,-8%
Brc1ccc(-c2nnc(-c3ccccc3Br)o2)cc1,3%
Cc1ccc(C(=O)Nc2cccc(C(=O)O)c2)cc1S(=O)(=O)N1CCOCC1,-4%
COc1cc(/C=C/C(=O)O)cc(S(=O)(=O)NC2CCCC2)c1OC,7%
Cc1ccc(NC(=O)c2ccc(CSc3ccccn3)cc2)cc1,16%
Cc1ccc(Cn2c(=O)n(CCc3ccccc3)c(=O)c3c(C)c(C)sc32)cc1,1%
C/C(=N\NC(=O)c1ccc(CN2CCc3ccccc3C2)cc1)c1ccccc1O,8%
Cc1oc(CC(C)C)cc1C(=O)Nc1cccc2ccccc12,-4%

Ordered by the number under VDR inh (lowest first): three from the list above.
molecule,VDR inh
CC(OC(=O)Cc1cccc(C(F)(F)F)c1)C(=O)Nc1ccc(Cl)cn1 (centres undefined),-5%
Cc1oc(CC(C)C)cc1C(=O)Nc1cccc2ccccc12,-4%
O=C(NCC(c1cccs1)N1CCOCC1)c1ccco1 (centres undefined),8%

(list continues)
molecule,VDR inh
O=C(CNC(=O)c1ccccc1F)N/N=C/c1cc(Br)ccc1OCc1ccccc1,-4%
O=C(CCCCn1c(=O)c2ccccc2n(Cc2ccccc2F)c1=O)NC1CCN(Cc2ccccc2)CC1,-13%
Cc1cccc(NC(=O)CSc2nnc(-c3ccco3)o2)c1,9%
CCCOC(=O)c1c(NC(=O)C2c3ccccc3Oc3ccccc32)sc2c1CCCC2,-129%
COc1ccc(C(=O)NNC(=O)CSc2nnc(-c3cccnc3)n2C)cc1,-7%
Cc1ccc(C(=O)c2oc3ccccc3c2NC(=O)C(C)Oc2ccccc2Cl)cc1 (centres undefined),-11%
O=C(CC1C(=O)NCCN1CC1CCCCC1)NCc1cccc(F)c1F (centres undefined),-10%
CCC(=O)N1CCN(CCN=CC2=C(O)CC(C)(C)CC2=O)CC1,8%
Cc1cccc(OCC(=O)Nc2cccc3cccnc23)c1C,0%
CC(=O)Nc1ccc2oc(C)nc2c1,1%

(more compounds)
molecule,VDR inh
COc1ccc(/C=C(/NC(=O)c2ccco2)C(=O)N2CCCCCC2)cc1OC,4%
CCOC(=O)c1cnc2c(OC)cccc2c1Nc1ccc2c(c1)OCCO2,-20%
COc1cc(CN(C(=S)NCC(=O)O)C2CCCC2)cc(OC)c1OC,14%
O=C1CC(N2CCN(c3ccccn3)CC2)C(=O)N1c1ccc(Cl)cc1 (centres undefined),-17%
COc1ccccc1CNC(=O)COC(=O)c1ccc(C(=O)c2ccccc2)cc1,-3%
Cc1c2n(c3ccccc13)CCC2=O,6%
COc1ccc(C(=O)Nc2ccc(Cl)cc2C(=O)N2CCCC(C)C2)cc1 (centres undefined),9%
Cc1cccc(NCN2C(=O)C3C4C=CC(C4)C3C2=O)c1 (centres undefined),-5%
CC(=O)Nc1ccccc1/C=C/c1ccc2c(C)cc(C)c(O)c2n1,6%
COc1cc(NC(=O)Cn2nc(-c3ccc(F)cc3)ccc2=O)ccc1-n1cnnn1,-7%

(list continues)
molecule,VDR inh
CCCCC/C=C\C/C=C\C/C=C\C/C=C\CCCC(=O)C(F)(F)F,28µM*
O=C(CCNC(=O)N1CC(=O)Nc2ccccc21)Nc1cccc(Cl)c1,-21%
Cc1ccc(C)c(N(CC(=O)NC(C)C)C(=O)CCC(=O)Nc2ccccn2)c1,-15%
C=CCN1C(=O)C(Cc2cccc(Cl)c2)SC1=Nc1ccc(C(=O)O)cc1 (centres undefined),0%
CCN(c1ccc(NC(=O)COC(=O)c2cccs2)cc1)C(C)C,1%
COc1ccc(CC(NC(C)=O)C(=O)NC2CCN(C(=O)c3ccc(Cl)cc3)CC2)cc1 (centres undefined),5%
Cc1ccc(S(=O)(=O)N2CCN(c3nccnc3C#N)CC2)cc1,-3%
O=C1C2=C(C(c3ccccc3)=NCCN2)C(c2cccc([N+](=O)[O-])c2)N1c1ccccc1 (centres undefined),-5%
CCOC(=O)N1CCN(c2ccc(N3C(=O)CCCC3=O)cc2[N+](=O)[O-])CC1,2%
Cc1ccc2cccc(S(=O)(=O)Nc3c(C)n(C)n(-c4ccccc4)c3=O)c2n1,14%

Remaining list, next part
molecule,VDR inh
Cc1cccc(-c2oc(C)c(C)[n+]2[O-])c1,-1%
O=C(COc1nncc2ccccc12)Nc1ccc(Br)cc1F,-1%
C=CCN(C(=O)OC(C)(C)C)S(=O)(=O)NCc1ccccc1,-7%
CCOc1ccccc1NC(=O)C1CCCN(S(=O)(=O)c2cccc3nsnc23)C1 (centres undefined),0%
COCc1cc(/C=N\NC(=O)c2ccc(Cl)cc2)ccc1OC,9%
Cc1nc2cc(CO)ccc2s1,0%
Cn1cc(S(=O)(=O)Nc2ccc(Oc3ccccc3)cc2)c(=O)n(C)c1=O,0%
Cc1ccc(NC(=O)c2c3c(nc4ccccc24)CCC3)cc1S(=O)(=O)N(C)C,-1%
COc1ccc(-c2nc(SCC(=O)Nc3ccc4c(c3)OCO4)c(-c3ccccc3)[nH]2)cc1,-1%

Retrieved by structure from the list above, 2 records:
molecule,VDR inh
C=CCN(Cc1ccc(Cl)s1)C(=O)c1cc(S(=O)(=O)N2CCOCC2)ccc1F,-13%
COc1ccc2sc(-c3ccccc3OC)c(C#CCCO)c2c1,-12%

Assay outcomes as filed in PubChem.

An excerpt. The share of hits here may be higher or lower than overall.
